Hsc70 – Hsc70 inhibitors, probe displacement, primary screen, biochemical, fluorescence polarization (AID 568); Heat shock cognate 71 kDa protein (Homo sapiens); Hsc70 fluorescence polarization, probe displacement; higher % means a stronger effect; strong numbers were not always called active; displacement, % at 20 µM; hits with a dose series show IC50 in µM; 83,000 tested, under 10 active;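 active = displacement above 50% without optical interference and an IC50 on retest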;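 note: ATPase domain with a fluorescein-tagged ATP probe; 0% = vehicle and 100% = excess ADP; read after one hour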
WNV protease inh – inhibitors of WNV NS2B-NS3 protease, primary screen, biochemical, fluorogenic substrate | Genome polyprotein (West Nile virus), P06935 | fluorogenic substrate Ex360/Em465; hits give low values | z-score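 (tested at a level between 10 and 100 µM)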 | actives 0.18% (n = 65,000);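 active = z-score at -3 or under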;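 note: score is relative to mean and spread of the compound wells of a plate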
Target sequence (P06935 1371-1501 limits assumed): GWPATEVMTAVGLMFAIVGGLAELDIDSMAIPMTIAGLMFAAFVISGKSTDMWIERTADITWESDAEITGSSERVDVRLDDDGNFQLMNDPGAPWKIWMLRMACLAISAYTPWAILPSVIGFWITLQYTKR
Target sequence (P06935 1502-1679 limits assumed): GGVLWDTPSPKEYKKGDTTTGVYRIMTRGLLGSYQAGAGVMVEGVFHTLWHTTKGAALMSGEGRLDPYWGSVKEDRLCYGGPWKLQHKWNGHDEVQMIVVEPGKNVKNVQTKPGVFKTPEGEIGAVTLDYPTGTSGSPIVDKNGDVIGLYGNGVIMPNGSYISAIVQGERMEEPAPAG
MT1-MMP promoter – inhibitors of MT1-MMP promoter transcription, cell-based, luciferase reporter, luminescence (AID 618) | calls from a first round at 10 µM; hits with a dose series show EC50 in µM | actives 0.62% (n = 87,000) | MT1-MMP promoter luciferase reporter cells, luminescence;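 active = over half of the reporter light lost at 10 µM or EC50 under 50 µM; inactive = the rest and hits that failed the dose series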;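 note: actives suppress MT1-MMP promoter-driven transcription so potencies describe inhibitors; HT1080 fibrosarcoma cells; overnight exposure; toxic or luciferase-blocking compounds were not removed from the actives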
* = called active by the depositor; i = inactive; x = no result given. Some of the compounds tested; the hit share may differ from the screen's.

SMILES,Hsc70,WNV protease inh,MT1-MMP promoter
NC(=O)CSc1nnnn1-c1ccc(OC(F)(F)F)cc1,-8.3%,-0.45,i
COc1ccc(CNS(=O)(=O)c2ccc(C3CNC(=O)C3)cc2)cc1 (stereo unspecified),2.8%,0.26,i
COc1nc(N)nc(N2CCOCC2)n1,1.4%,0.34,i
CNC(=O)c1c(NC(=O)c2ccc(S(=O)(=O)N3CCOCC3)cc2)sc2c1CCC2,-2.8%,-0.32,i
CCOC(=O)Nc1ccc(C)cc1C,-0.7%,x,i
COc1ccccc1-c1cc(C(F)(F)F)nc(S(=O)(=O)CCCC(=O)N2CCOCC2)n1,2.7%,-0.32,22µM*
O=C(NCc1cccs1)c1ccccc1F,-1.7%,-0.88,i
COc1ccc(N2C(=O)CC(N3CCN(c4ccc(S(C)(=O)=O)cc4)CC3)C2=O)cc1 (stereo unspecified),5.2%,x,i
CCOC(=O)c1csc(NC(=O)c2ccc(OC)c(OC)c2)n1,-8.5%,0.33,i
O=C(NCc1ccco1)c1cc2nc(-c3cccs3)cc(C(F)(F)F)n2n1,-6.8%,2.3,i
CCOC(=O)c1c(-c2ccc(C)o2)csc1NC(=O)CSc1nnc(C)s1,-2.9%,0.38,i
O=C(N1CCOCC1)N(Cc1cccs1)C1CCCC1,-6.8%,-0.95,i
CC(C)(C)C(=O)NCC12C=CC(O1)C1C(=O)N(c3ccccc3)C(=O)C12 (stereo unspecified),1.1%,x,i
O=C(COc1ccc(Cl)cc1Cl)N(Cc1ccco1)C1CCS(=O)(=O)C1 (stereo unspecified),-0.9%,0.25,i
COCCN(CC(=O)NCc1ccccc1)C(=O)CCC(=O)Nc1nccs1,-1.7%,0.55,i
Cc1c(C(N)=O)sc2nc(-c3ccccc3)cn12,3.9%,-0.43,i
Cc1[nH]n(-c2cccc(Cl)c2)c(=O)c1-c1ccccc1,4.6%,x,i
COc1ccccc1N1CCN(Cc2nc(N)nc(Nc3ccccc3)n2)CC1,-0.6%,2.3,i
CCOC(=O)C1CCN(C(=O)N(C)C)CC1,4.1%,1.1,i
Cc1nnc(SCCn2c(N3CC(C)CC(C)C3)nc3c2c(=O)[nH]c(=O)n3C)s1 (stereo unspecified),-3.8%,-1.3,i
Cc1cc(C)c(S(=O)(=O)N(CC(=O)NCc2cccnc2)C2CCCCC2)c(C)c1,-5.5%,-0.99,i
O=C(O)CCc1ccc(-c2ccc(F)cc2)n1CC(=O)O,4.8%,0.55,i
COC(=O)c1cc(CC(=O)c2ccc(O)cc2O)c(C)o1,-2.3%,-0.5,i
CC1(C)Cc2ccccc2-c2nc(NCCCO)n(-c3ccccc3)c(=O)c21,-9.5%,-0.1,i
CCCCCCNC(=O)CC(NS(=O)(=O)c1ccc(NC(C)=O)cc1)C(C)C (stereo unspecified),0.7%,0.18,i
CCN(CC)S(=O)(=O)c1ccc(NC(=O)c2ccc(N(C)S(C)(=O)=O)cc2)cc1,7.4%,x,i
CCOc1ccc(-c2nnn(CC(=O)NCc3cccs3)n2)cc1,-2.0%,0.79,i
COc1ccc(N/N=C(/N=Nc2nc(C)cc(=O)[nH]2)c2ccccc2)cc1,3.4%,x,i
CCOC(=O)CSC1=C(C#N)C(c2ccco2)C(C(=O)OCc2ccccc2)=C(C)N1 (stereo unspecified),-0.1%,-0.92,i
CC(=O)Nc1nonc1-c1ccccc1,-0.8%,2.1,i
CN(CC(=O)NC(=O)NCc1ccco1)Cc1nc2ccccc2c(=O)[nH]1,0.2%,0.29,i
CCCCC(NS(=O)(=O)c1ccc(OC)cc1)C(=O)O (stereo unspecified),-1.1%,-0.34,i
C=CCn1c(-c2cc(Cl)ccc2OC)n[nH]c1=S,4.5%,x,i
CCn1ncc(C2=NOC(C(=O)Nc3ccccc3C(=O)OC)C2)c1C (stereo unspecified),-5.6%,-1.2,i
COc1ccc(C(=O)Nc2ccc(Cl)cc2C(=O)NCc2ccco2)cc1OC,0.9%,0.07,i
CC1CC(C)CN(C(=O)CCNS(=O)(=O)c2cccs2)C1 (stereo unspecified),-0.4%,x,i
Cn1c(Nn2cnnc2)nc2ccccc21,-0.8%,-0.73,i
COc1ncnc2c1N=C1CC(C)(C)CC(N)=C1S2,35%,0.6,i
COCCCNC(=O)CCCOc1ccccc1,-1.4%,0.96,i
COc1ccc(C(=O)NCc2cccnc2)cc1,4.6%,x,i
CCC(=O)Nc1ccc(C(=O)n2nc(C)cc2C)cc1,2.5%,2.4,i
Cc1ccc(C(=O)CC2(O)C(=O)N(Cc3ccccc3)c3ccccc32)o1 (stereo unspecified),-2.8%,-0.34,i
CCOC(=O)N1CCN(c2cc3nccnc3cc2F)CC1,-8.2%,-0.74,i
COc1cc(C(=O)OC(C)C(=O)NCC2CCCCC2)cc(NC(=O)c2ccco2)c1OC (stereo unspecified),-13%,x,i
N/C(CCN1CCCCC1)=N/O,7.8%,0.42,i

(further entries)
Values run as follows: Hsc70, WNV protease inh, MT1-MMP promoter
- O=S(=O)(c1ccc(OCc2nc3ccccc3s2)c(Cl)c1)N1CCOCC1
    -5.7%, -0.17, i
- Cc1ccc(-c2csc(NC(=O)CSc3nc(C)cc(=O)[nH]3)n2)cc1
    3.2%, x, i
- COc1ccc(C2C(=O)N(C3CCCCC3)CC(=O)N2Cc2ccc3c(c2)OCO3)cc1 (stereo unspecified)
    -4.6%, 1.5, i
- CC(C)CCn1cnc2c(cnn2-c2ccc(Cl)cc2)c1=O
    4.0%, 0.92, i
- Cc1ccc(S(=O)(=O)NCC(=O)N(CC(=O)NCc2ccco2)Cc2ccc3c(c2)OCO3)cc1
    1.0%, 0.36, i
- CCOC(=O)c1c(NC(=O)C(F)(OC)C(F)(F)F)sc(C(=O)N2CCCCC2)c1C (stereo unspecified)
    -2.8%, 0.61, i
- COc1ccc(-n2c(N)c(Br)c(=O)[nH]c2=O)cc1
    4.2%, -0.44, i
- COc1ccc(OC)c(S(=O)(=O)N2CCC(C(=O)N3CCN(Cc4ccccc4)CC3)CC2)c1
    4.4%, 2.4, i
- COc1ccc(S(=O)(=O)CCC(=O)N2c3ccccc3CC2C)cc1 (stereo unspecified)
    1.7%, 0.37, i
- COC(=O)c1ccc(S(=O)(=O)c2ccccc2)c(N)c1
    0.7%, x, i
- COc1ccc2c(c1)C1CC(C)(NC(=O)C1C(=O)c1ccccc1)O2 (stereo unspecified)
    -1.3%, -1.5, i
- Cc1ccc2nc(NC3=NCN(Cc4ccccc4)CN3)nc(C)c2c1
    -1.0%, -1.6, i
- O=C(CCC1N=C2c3ccccc3N=C(SCc3ccc(F)cc3)N2C1=O)NCc1ccco1 (stereo unspecified)
    2.7%, 1.5, i
- CCOC(=O)c1c2n(c3ccc(O)cc13)CCCCC2
    3.0%, -0.71, i
- COc1ccc(CNc2nc(SC)n[nH]2)cc1OC
    1.5%, 0.29, i
- Cc1cnc(NC(=O)CSc2nnc(-c3ccncc3)n2C2CCCCC2)s1
    1.7%, 2.2, i
- COc1ccccc1C1CN(c2ccccc2)N=C1c1cccs1 (stereo unspecified)
    -7.1%, x, i
- Cc1cccc(-n2c(SCC(N)=O)nnc2-c2ccccn2)c1C
    -5.1%, -0.79, i
- Cc1cc(N2CCN(S(=O)(=O)c3ccc4c(c3)OCCO4)CC2)n2ncnc2n1
    0.5%, -0.83, i
- O=C(Nc1nccs1)c1ccc(S(=O)(=O)NCC2CCCCC2)cc1
    -1.6%, 1.1, i
- CCc1nnc(NC(=O)c2cccc(S(=O)(=O)N3CCN(c4ccccc4)CC3)c2)s1
    -8.7%, 0.63, i
- O=C(Nc1ccccc1N1CCCC1)c1ccco1
    1.9%, 0.81, i
- COc1ccccc1-c1c(C)nn2c(C)c(C(C)=O)cnc12
    -3.0%, 0.46, i
- CC(=O)N1C(=O)C2(C(C#N)=C(N)Oc3c2c(C)nn3-c2ccccc2)c2ccccc21 (stereo unspecified)
    4.2%, -0.4, i
- CCCCc1ccc(NC(=O)CC(C)=O)cc1
    2.7%, 0.24, i
- Cc1ccc(-c2cn(S(=O)(=O)c3ccc(C)cc3)nc2N)cc1
    1.4%, x, i
- CCOC(=O)C1CCCN(C(=O)N2CCOCC2)C1 (stereo unspecified)
    -4.3%, -0.67, i
- Cc1cc(-n2nc(C)cc2C)nc(NS(=O)(=O)c2ccccc2Cl)n1
    1.6%, x, i
- N=C1C(c2ccccc2)=C(O)C2CCc3ccccc3N12 (stereo unspecified)
    3.7%, -0.98, i
- CCOc1ccc(-n2c(=S)sc3c(=O)[nH]c(SCC(=O)N4CCC(C)CC4)nc32)cc1
    4.3%, x, i
- CCOc1cc(S(=O)(=O)Nc2ccc(Cl)cn2)ccc1Cl
    3.5%, x, i
- CCOc1cc(C(=O)Nc2ccc3c(c2)OCO3)ccc1OC(F)F
    2.2%, -0.83, i
- CCOC(=O)C1C(=O)NC(N2CCN(CC)CC2)=NC1c1ccccc1 (stereo unspecified)
    -0.3%, -0.56, i
- O=C(COC(=O)C(O)c1ccccc1)c1ccc2c(c1)OCCO2 (stereo unspecified)
    1.7%, 1.2, i
- COc1cccc(C(=O)N2CCCc3ccccc32)c1
    86%, 0.34, i
- COCCn1c(=S)[nH]c2cc(C(=O)N3CCC(C(N)=O)(N4CCCCC4)CC3)ccc2c1=O
    -4.0%, 0.96, i
- CCOC(=O)Cc1c(C)nc2c(-c3ccccc3)c(C)nn2c1C
    22%, x, i
- CCCCCC(=O)N(CN1C(=O)CCC1=O)c1ccccc1
    -3.3%, 0.64, i
- Cc1cc(S(=O)(=O)NC2CCCCC2)ccc1OCC(=O)NCc1cccnc1
    -4.8%, x, i
- CC1(C)Cc2nc3sc4c(=O)[nH]cnc4c3cc2CS1
    4.0%, -0.8, i
- Cc1[nH]cnc1CSCCN
    4.1%, 0.04, i
- COc1ccccc1NC(=O)c1oc2ccc(C)cc2c1C
    -0.3%, -1.6, i
- CC1=CC(c2ccccc2)n2nc(N3C(=O)CCC3=O)nc2N1 (stereo unspecified)
    -2.4%, x, i
- O=C(O)CC(NS(=O)(=O)c1cccc2nsnc12)c1ccc(F)cc1 (stereo unspecified)
    -6.8%, -0.25, i
- COc1ccc(N(CC(=O)N2CCCC(C)C2)S(=O)(=O)c2c(C)nn(C)c2C)cc1 (stereo unspecified)
    8.0%, 0.05, i

Pulled by compound from above (5):
Values run as follows: Hsc70, WNV protease inh, MT1-MMP promoter
- COc1cccc(C(=O)N2CCCc3ccccc32)c1
    86%, 0.34, i
- CCOC(=O)C1C(=O)NC(N2CCN(CC)CC2)=NC1c1ccccc1 (stereo unspecified)
    -0.3%, -0.56, i
- COc1ccccc1NC(=O)c1oc2ccc(C)cc2c1C
    -0.3%, -1.6, i
- CCCCCC(=O)N(CN1C(=O)CCC1=O)c1ccccc1
    -3.3%, 0.64, i
- Cc1cc(S(=O)(=O)NC2CCCCC2)ccc1OCC(=O)NCc1cccnc1
    -4.8%, x, i

Later entries.
Values run as follows: Hsc70, WNV protease inh, MT1-MMP promoter
- CCN(CC)C(=O)CSc1ncnc2c(-c3cccs3)nsc12
    -4.7%, 1.2, i
- Cc1cc(=O)n(C)c(=O)n1CCCCCN1CCCC1
    0.1%, 0.22, i
- Cc1ccc(Cn2ncc3c(N4CCN(c5ccccc5C)CC4)ncnc32)cc1
    -2.0%, -1.8, i
- CC(=O)NC1C(=O)N(C)c2ccc(Br)cc21 (stereo unspecified)
    4.5%, x, i
- CCOC(=O)c1cc2sccc2n1CC(=O)c1ccc2c(c1)OCCO2
    2.5%, 0.03, i
- CC(C)(C)C(=O)C(Cc1ccccc1)n1cncn1 (stereo unspecified)
    -2.5%, x, i
- CN(CC(=O)N1CCCC1)S(=O)(=O)c1ccc(Cl)cc1
    2.3%, x, i
- COc1ccccc1N1CCN(CCCOc2ccc(F)cc2)CC1
    2.6%, x, i
- CCOc1cc(C#N)c(NC(=O)CSc2nnnn2-c2ccc(OC)cc2)cc1OCC
    4.8%, -1.3, i
- O=C(NCc1ccco1)c1cc(S(=O)(=O)N2CCOCC2)c(Cl)cc1Cl
    -2.2%, 0.03, i
- O=S(=O)(c1cc(Cl)ccc1Cl)N1CCCCC1
    4.9%, 0.15, i
- O=C(O)C1C2C=CC(C2)C1C(=O)NC1CCS(=O)(=O)C1 (stereo unspecified)
    -3.3%, -0.99, i
- COc1ccc(N2CCN(c3nc(NC(C)(C)C)nc(N4CCCCC4)n3)CC2)cc1
    -3.3%, -0.29, i
- Cc1cccc(NC(=O)Cn2cnc3c(cnn3-c3ccc(F)cc3)c2=O)c1C
    -0.8%, -0.53, i
- COCCn1c(N2CCN(c3ccc(OC)cc3)CC2)nc2c1c(=O)n(C)c(=O)n2C
    9.5%, -0.24, i
